INS promoter inh: TRM-6 insulin promoter activity inhibition | TRM-6 cells (human fetal islet line), insulin promoter-eGFP reporter, imaging; reporter expression induced with tamoxifen | 130,000 compounds, 0.9% hits | inhibition, % at 2 µM;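 active means inhibition above the mean plus 3 SD, with well images judged a real hit on visual review, cut at about 60% in these data, passing the limit was not always enough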
PKD1 kinase inh: PKD1 (human) kinase inhibition; Q15139; PKD1 kinase fluorescence polarization assay; inhibition, %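 (about 10 µM by stock and volumes)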; 200,000 compounds, 0.056% hits;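 active means inhibition of 50% or more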;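 further: controls were vehicle for no effect and a reference inhibitor for full effect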
HSV replic up: HSV replication enhancement | 220,000 compounds, 0.005% hits | HSV replication augmentation in cells, fold increase | maximum fold increase;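 active means peak rise of 1.5-fold or more in the series; tested in PC3 cells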;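 further: first round at 10 µM; read as green reporter fluorescence; hits show the peak of a series up to 25 µM; 1 = signal of infected wells without compound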
RGS16-Gao HTS: RGS16-Galphao interaction regulator (human) | AID 1441 | binding response (% of control), % at 10 µM | bead-based flow cytometry RGS16-Galphao binding, fluorescence; actives lie on both sides | 220,000 compounds, 0.38% hits | O15492+P09471;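 active means below 25% or above 175%, edge rows of some plates excepted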;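 further: Galphao activated by GDP with aluminum fluoride before binding; 100% = wells without compound and 0% = beads without RGS; some results beyond the cut were filed as inactive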
Target sequence (O15492 whole entry, looked up): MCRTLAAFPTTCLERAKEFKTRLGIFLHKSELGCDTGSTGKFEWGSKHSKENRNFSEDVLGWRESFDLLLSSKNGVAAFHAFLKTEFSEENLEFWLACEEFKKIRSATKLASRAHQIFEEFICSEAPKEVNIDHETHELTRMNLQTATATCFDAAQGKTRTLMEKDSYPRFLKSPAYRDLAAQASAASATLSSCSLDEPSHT
Target sequence (P09471 whole entry, looked up): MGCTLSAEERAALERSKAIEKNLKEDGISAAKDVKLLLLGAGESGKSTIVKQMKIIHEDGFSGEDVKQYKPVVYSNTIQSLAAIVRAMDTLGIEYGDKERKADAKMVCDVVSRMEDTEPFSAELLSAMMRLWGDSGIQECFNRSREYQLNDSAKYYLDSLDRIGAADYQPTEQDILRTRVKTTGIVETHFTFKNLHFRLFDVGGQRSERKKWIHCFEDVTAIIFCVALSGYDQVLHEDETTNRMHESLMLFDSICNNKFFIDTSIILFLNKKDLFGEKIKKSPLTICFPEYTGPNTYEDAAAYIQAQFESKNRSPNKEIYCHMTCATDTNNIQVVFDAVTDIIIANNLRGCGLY
GALR2 ag: GALR2 (human) receptor agonism | 140,000 compounds, 0.48% hits | activation, %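 (tested at 5 µM)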 | O43603 | AID 803 | GALR2-expressing cells, agonist activation read-out;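 active means above mean plus 3 SD of all compounds, about 5% in these data, not always enough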;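 further: 0% = vehicle buffer wells and 100% = reference agonist at full effect; tested in CHO reporter cells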
Target sequence (O43603 whole entry, looked up): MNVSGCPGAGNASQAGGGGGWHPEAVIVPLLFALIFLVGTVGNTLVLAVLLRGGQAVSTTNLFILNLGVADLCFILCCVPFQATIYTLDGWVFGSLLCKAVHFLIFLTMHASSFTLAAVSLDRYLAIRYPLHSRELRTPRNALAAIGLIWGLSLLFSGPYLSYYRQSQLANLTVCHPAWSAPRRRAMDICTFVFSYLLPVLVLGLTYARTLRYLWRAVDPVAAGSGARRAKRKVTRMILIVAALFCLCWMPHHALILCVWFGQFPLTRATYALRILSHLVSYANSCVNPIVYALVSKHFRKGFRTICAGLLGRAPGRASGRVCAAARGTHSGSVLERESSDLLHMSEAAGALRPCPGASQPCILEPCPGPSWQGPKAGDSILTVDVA
INS promoter inh cell count: second read-out of INS promoter inh, no call of its own (marks repeat the call); normalized cell count, %; measured here: cell count, toxicity; reference of the scale not given here;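 cells exposed to compound for 48 h; stained nuclei by imaging scaled within each plate; lower means fewer cells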
HSV replic up primary fold: also measured in HSV replic up; calls as there; fold increase; compound at 10 µM; measured here: primary screen fold increase 10 uM; tested in PC3 cells;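 GFP signal in the first replicate; 1 = infected wells without compound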
* = called active by the depositor; i = inactive; nt = not tested or not shown.

SMILES	INS promoter inh	INS promoter inh cell count	PKD1 kinase inh	HSV replic up	HSV replic up primary fold	RGS16-Gao HTS	GALR2 ag
O=C(NCc1ccc(C(F)(F)F)cc1)C1CC(c2ccccc2[N+](=O)[O-])=NO1 (centres undefined)	27	94	-5	i	0.68	98	-1.6
O=[N+]([O-])c1cccc(-c2nnc3c4ccccc4c4ccccc4n23)c1	-19	50	0	i	0.9	108	-1.2
CC(=O)Oc1ccc(/C=N/NC(=S)Nc2ccccc2)cc1	11	141	2	i	0.88	103	-0.4
CC1CC(N(C(=O)C2CC2)c2ccccc2)c2ccccc2N1C(=O)C1CC1 (centres undefined)	12	98	2	i	0.96	105	-2.3
C/C(=N\Nc1ccc2nncn2n1)c1cccs1	nt	nt	nt	i	0.97	104	nt
COc1ccc(N=C2NC(=O)/C(=C\C=C\c3ccco3)S2)cc1	-6	88	3	i	1.1	95	nt
CCCc1nnc(NC(=O)CC(=O)OCC)s1	20	73	-5	i	1	108	-0.8
CNC(=S)N/N=C/c1c(C)nn(-c2ccc(F)cc2)c1Cl	53	127	5	i	1.2	98	nt
CCCCC(=O)Nc1ccc(NC(=O)c2ccc([N+](=O)[O-])cc2)cc1OC	0	134	-11	i	0.92	109	0.5
CC(C)(C)/C(Cn1cncn1)=N\OC(=O)Nc1ccc(Cl)cc1	13	203	11	i	0.95	110	0.3
CCCCn1c(=O)[nH]c(=O)c2c1nc(-c1ccc(OCCC)c(OCC)c1)n2CCOC	7	146	-1	i	0.83	100	nt
COC(=O)c1c(C)oc(C)c(C(=O)OC)c1=O	nt	nt	-3	i	1.1	126	7.6
CC1CCN(C(=O)c2cc(Cl)nc3ccccc23)CC1	-27	107	-5	i	0.99	107	-1.4
Cc1cccc(NC(=O)CSc2cc(C(=O)c3nccn3C)c3ccccc3n2)c1	-46	91	-6	i	0.96	169	-1.4
CC(=O)NCCn1c(SCC(=O)OCc2ccccc2)nc2ccccc2c1=O	nt	nt	-7	i	0.88	98	-0.4
COc1ccc(-c2cc(NCc3ccccn3)n3ncnc3n2)cc1	nt	nt	1	nt	nt	94	-0.7
CC(C)Cc1nc2oc3c(N4CCN(C)CC4)ncnc3c2c2c1CCCC2	nt	nt	-5	i	0.79	115	-1.1
CCCCC(=O)NC(=S)Nc1cc([N+](=O)[O-])ccc1OC	nt	nt	6	i	0.97	105	nt
CC(C)(C)Oc1ncc(Br)c(OC(C)(C)C)n1	22	102	0	i	1.2	102	-1.8
O=S(=O)(Nc1ccncc1Cl)c1ccccc1	-31	84	-9	i	0.99	98	-0.5
COCCNC(=O)/C(=C/c1ccccc1Cl)c1ccccc1	43	66	-1	i	1	119	-0.7
COc1ccc(-c2cc(C(F)(F)F)nc(N3CCOCC3)n2)cc1	-54	106	-5	i	1	93	-2.2
COc1ccc2nc(N=Nc3ccc(O)c4ccccc34)sc2c1	nt	nt	-4	i	0.83	126	-1.5
CCOc1ccc2nc(SCC(=O)N(C)C)[nH]c2c1	0	120	-2	i	1.1	92	-1.4
Cc1csc2nnc(N)n12	-14	222	-19	i	0.96	107	-2.3

The results go on.
SMILES	INS promoter inh	INS promoter inh cell count	PKD1 kinase inh	HSV replic up	HSV replic up primary fold	RGS16-Gao HTS	GALR2 ag
Cc1cccc(NC(=O)COc2ccccc2)c1	9	112	-9	i	1	92	-6.4
Cc1ccc(S(=O)(=O)Nc2nc3ccccc3nc2NCc2ccc3c(c2)OCO3)cc1C	nt	nt	1	i	0.91	104	-0.6
COc1ccc(NC(=O)c2nc[nH]c2C(=O)N2CCC(C)CC2)cc1	nt	nt	nt	i	0.94	100	nt
CN(c1ccc(C(=O)N2CCc3ccccc3C2)cc1)S(C)(=O)=O	-31	93	4	i	0.97	106	-0.9
Cn1nnc(NC(=O)c2cccc(F)c2)n1	nt	nt	-2	i	0.79	122	-3.1
CCCOc1ccc(CSC(=N)N)cc1C(=O)OC	nt	nt	nt	i	0.83	99	nt
Cc1ccc(/C=N/NC(=O)Cn2nnc(N)n2)o1	nt	nt	nt	i	1.2	106	nt
COc1ccc(NC(C)=O)cc1NC(=O)c1ccc(C#N)cc1	64	144	2	i	0.88	99	nt
CCOP(=O)(OCC)c1nc(-c2cccc3ccccc23)oc1NCc1ccccc1	17	110	3	i	1	105	-2.2
COc1ccc(OC)c(-n2c(-c3cccc(O)c3)n[nH]c2=S)c1	-22	146	-3	i	1.2	104	-1.8
COc1ccc(OC)c(NC(=O)CN(C)CC(=O)Nc2ccccc2Br)c1	18	146	-3	i	0.95	104	nt
CCc1c(C)nc2cc(C)[nH]n2c1=O	-9	88	2	i	1	104	-1.8
O=C(CN1C(=O)c2ccccc2C1=O)Nc1ccc(S(=O)(=O)N2CCOCC2)cc1	nt	nt	5	i	0.94	97	nt
O=C(O)C/C=C(/NC(=O)OCc1ccccc1)C(=O)OCc1ccccc1	20	110	-1	i	1	106	nt
COCC(=O)Nc1nc(-c2ccc(C)cc2)c(C)s1	-314	35	-2	i	0.97	99	-1.9
COc1ccc(NC(=O)Cn2cnc3c(nnn3-c3ccc(C)cc3)c2=O)cc1	5	132	0	i	1	94	nt
Cc1cc(C(=O)N2CCc3c([nH]c4ccccc34)C2c2c(F)cccc2Cl)no1 (centres undefined)	nt	nt	2	i	1.1	99	nt
CCC(C(=O)Nc1ccc2c(c1)OCCO2)c1ccccc1 (centres undefined)	nt	nt	-6	i	1.1	88	nt
COc1ccc(NS(=O)(=O)c2cc(OCC(N)=O)c(C)cc2Cl)cc1	35	95	-15	i	0.93	101	-1.4
Cn1c(=O)c2c3c(sc2n2cnnc12)CCC3	17	87	-1	i	0.84	91	0.1
CC(=O)c1ccc(Oc2cc(C)nc(-n3nc(C)cc3C)n2)cc1	-8	16	-4	i	0.69	100	-2.4
CC(C)CC(NC(=O)C1CCC(C)CC1)C(=O)NCc1ccccn1 (centres undefined)	-29	81	-3	i	0.72	108	-2.6
O=C1C(N2CCOCC2)=C(n2nnc3ccccc32)C(=O)c2ccccc21	10	103	0	i	0.84	100	-1.1
CCc1ccc(NC(=S)N(CCCN2CCOCC2)Cc2ccco2)cc1	nt	nt	-5	i	0.78	100	nt
Cn1c(SCC(=O)Nc2sccc2C#N)nnc1-c1ccccc1	19	140	0	i	1	99	-3.9

Limited to RGS16-Gao HTS, INS promoter inh cell count and PKD1 kinase inh, for some of the entries so far:
Molecule	RGS16-Gao HTS	INS promoter inh cell count	PKD1 kinase inh
CC(C)CC(NC(=O)C1CCC(C)CC1)C(=O)NCc1ccccn1 (centres undefined)	108	81	-3
Cn1c(=O)c2c3c(sc2n2cnnc12)CCC3	91	87	-1

Pulled one by one from the list above:
SMILES	INS promoter inh	INS promoter inh cell count	PKD1 kinase inh	HSV replic up	HSV replic up primary fold	RGS16-Gao HTS	GALR2 ag
Cc1cccc(NC(=O)COc2ccccc2)c1	9	112	-9	i	1	92	-6.4
CC(=O)c1ccc(Oc2cc(C)nc(-n3nc(C)cc3C)n2)cc1	-8	16	-4	i	0.69	100	-2.4
O=C(CN1C(=O)c2ccccc2C1=O)Nc1ccc(S(=O)(=O)N2CCOCC2)cc1	nt	nt	5	i	0.94	97	nt
CCc1c(C)nc2cc(C)[nH]n2c1=O	-9	88	2	i	1	104	-1.8
Cn1nnc(NC(=O)c2cccc(F)c2)n1	nt	nt	-2	i	0.79	122	-3.1
COc1ccc(OC)c(-n2c(-c3cccc(O)c3)n[nH]c2=S)c1	-22	146	-3	i	1.2	104	-1.8
O=C1C(N2CCOCC2)=C(n2nnc3ccccc32)C(=O)c2ccccc21	10	103	0	i	0.84	100	-1.1

(more compounds)
SMILES	INS promoter inh	INS promoter inh cell count	PKD1 kinase inh	HSV replic up	HSV replic up primary fold	RGS16-Gao HTS	GALR2 ag
O=C(Nc1nccs1)c1ccc(-c2ccc(Cl)cc2)o1	nt	nt	0	i	0.92	98	nt
O=C(CSc1nnc(-c2ccccc2)c(-c2ccccc2)n1)N1CCOCC1	-23	132	0	i	0.83	96	0.7
CCC(C)Sc1cc(C)c(C#N)c2nc3ccccc3n12 (centres undefined)	nt	nt	0	i	0.74	63	0.5
Cc1oc2c(c1C(=O)NCc1cccnc1)C(=O)c1ccccc1C2=O	nt	nt	-6	nt	nt	93	nt
COc1ccc(OCC(=O)Nc2ccc(NC(=O)c3cccs3)c(OC)c2)cc1	nt	nt	0	i	0.97	102	nt
CCOC(=O)C1CCN(c2ncnc3c2[nH]c2cccc(OC)c23)CC1	0	106	0	i	0.81	100	0.3
COc1ccc(C(=O)Nc2nc(N)n(-c3ccccc3)n2)cc1	-17	86	-2	i	1	109	-0.4
CCOC(=O)CCc1c(C)c2ccc(OCC(=O)OC(C)C)cc2oc1=O	53	128	-3	i	0.99	94	-2.2
CC(OC(=O)c1ccccc1OCc1ccc(Cl)cc1)C(N)=O (centres undefined)	nt	nt	-12	i	0.88	104	nt
COc1ccc(-c2nc3ccccc3c(=O)n2CCOc2c(C)cccc2C)cc1	nt	nt	-2	i	1	105	0.2
Cc1cc([N+](=O)[O-])ccc1NC(=S)NC(=O)Cc1ccccc1	nt	nt	0	i	0.99	103	-0.4
COc1ccc2[nH]cc(CCNS(=O)(=O)c3ccc(F)cc3)c2c1	nt	nt	-3	i	1.1	106	nt
O=C(Nc1cccc(Cl)c1)c1ccc(F)c(S(=O)(=O)N2CCN(c3ccccn3)CC2)c1	-39	73	7	i	0.83	128	-1.7
Cc1cc(C)cc(NC(=S)Nc2ccc3cn[nH]c3c2)c1	nt	nt	-8	i	0.91	95	-1.5
COc1ccc(-n2cnc3sc(-c4ccccc4)cc3c2=O)cc1	33	114	3	i	0.81	104	-1.7
CCC1=NN(C(=O)CCc2ccccc2O)C(O)(C(F)(F)F)C1 (centres undefined)	30	94	5	i	1	23	-1.6
Cc1cc(C)c2c(N)c(C(=O)NC3CC3)sc2n1	40	58	-4	i	0.96	101	0.1
CN(C)/N=C/c1ccc(P(c2ccc(/C=N/N(C)C)o2)c2ccc(/C=N/N(C)C)o2)o1	-17	71	3	i	0.99	168	nt
COc1cc(C(=O)NC2=NCCS2)ccc1OCc1c(C)noc1C	-43	68	-9	i	0.79	95	-0.5
CCOc1ccc(N(CC(=O)NCCSc2ccccn2)S(C)(=O)=O)cc1	-15	130	-9	i	0.89	101	-2.0
CCCOC(=O)c1ccc(NC(=O)c2cn(CC)c3nc(C)ccc3c2=O)cc1	56	51	-4	nt	nt	104	-3.0
COc1ccccc1NC(=O)Cn1c(O)c(N=NC(=O)c2ccccc2O)c2ccccc21	nt	nt	-10	i	0.99	110	nt
CCN1CCc2c(sc(N)c2C(N)=O)C1	nt	nt	-10	nt	nt	96	6.0
COc1cccc(-n2c(SCC(=O)NC3CCCCC3)nc3n[nH]c(C)c3c2=N)c1	nt	nt	4	i	0.91	107	-1.9
O=c1ccc(/C=C/c2ccccc2)nn1Cc1ccccc1	10	109	-5	i	0.9	110	-2.3

Complete entries from above. Order of values: INS promoter inh, INS promoter inh cell count, PKD1 kinase inh, HSV replic up, HSV replic up primary fold, RGS16-Gao HTS, GALR2 ag
CN(C)/N=C/c1ccc(P(c2ccc(/C=N/N(C)C)o2)c2ccc(/C=N/N(C)C)o2)o1 is listed as -17, 71, 3, i, 0.99, 168, nt
CCC(C)Sc1cc(C)c(C#N)c2nc3ccccc3n12 (centres undefined) is listed as nt, nt, 0, i, 0.74, 63, 0.5

New compounds follow:
SMILES	INS promoter inh	INS promoter inh cell count	PKD1 kinase inh	HSV replic up	HSV replic up primary fold	RGS16-Gao HTS	GALR2 ag
Fc1ccccc1CNc1ccc(Cl)c(Cl)c1	nt	nt	10	i	1.2	123	1.0
COC(=O)c1[nH]c2ccc(C)cc2c1NC(=O)CN1CCC(C)CC1	-83	112	-3	i	0.89	140	-2.1
Cc1ccc(C(c2nnnn2Cc2cccs2)N2CCN(C(=O)c3ccco3)CC2)cc1 (centres undefined)	8	87	-17	i	0.91	98	0.0
COC(=O)N(NC(=O)C(O)(C(C)C)C(C)C)c1ccccc1	nt	nt	nt	i	1.1	101	nt
COc1ccc(CNC(=O)C2CCCN(S(=O)(=O)c3cnc[nH]3)C2)cc1 (centres undefined)	nt	nt	7	i	0.97	103	-1.8
Cc1cc(/C=N/NC(=O)c2cccc([N+](=O)[O-])c2)c(C)n1-c1ccc(Cl)cc1Cl	nt	nt	0	i	0.92	106	-1.6
Nn1c(SCC(=O)Nc2ccc3c(c2)OCCO3)nnc1-c1ccccn1	-14	130	8	nt	nt	108	-0.2

4 of the entries above in order of their number in GALR2 ag, rising.
| smiles | GALR2 ag |
| --- | --- |
| COC(=O)c1[nH]c2ccc(C)cc2c1NC(=O)CN1CCC(C)CC1 | -2.1 |
| COc1ccc(CNC(=O)C2CCCN(S(=O)(=O)c3cnc[nH]3)C2)cc1 (centres undefined) | -1.8 |
| Cc1ccc(C(c2nnnn2Cc2cccs2)N2CCN(C(=O)c3ccco3)CC2)cc1 (centres undefined) | 0.0 |
| Fc1ccccc1CNc1ccc(Cl)c(Cl)c1 | 1.0 |

Screens: PubChem, several laboratories
